# From PubChem BioAssay
# S aureus helic = blocks Staphylococcus aureus DNA helicase | hit rate 0.05% among 120,000 | purified S. aureus helicase, fluorescence unwinding assay; about half of the hits fall short of the stated cut | inhibition, %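 (tested at about 80 µM)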;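 active = both duplicates at 50% or more, or one of them with a favoured structure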;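 also: 0% = mean of negative control wells and 100% = mean of positive control wells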
# MgrA DNA FP = modulators of Staphylococcus aureus MgrA DNA binding; inhibition, %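 (about 10 µg/mL by stock and volumes)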; AID 602314; hit rate 0.13% among 84,000; fluorescence polarization;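 active = above 50% in either of two replicates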;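 also: 0% = protein plus DNA without compound and 100% = DNA alone without protein; higher means less MgrA bound to DNA so lower polarization; one replicate is shown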
# Starred values were filed as active, the others as inactive; . = no result given; & = joins results of further samples.
S aureus helic	MgrA DNA FP	structure
-10.0	.	Cc1nc2cc(NC(=O)COc3ccccc3C#N)ccc2n1-c1ccccc1
-4.0	.	c1ccc(-c2nc(CN3CCNCC3)co2)cc1
14.0	-1.3	O=C(C(c1ccccc1)c1ccccc1)N1CCCC1
-3.0	.	Cc1onc(-c2c(F)cccc2Cl)c1C(=O)Nc1ccc(S(=O)(=O)N2CCOCC2)cc1
6.0	-1.1	CCOc1ccc(N(Cc2cccc3ccccc23)C(=O)c2ccco2)cc1
12.0	.	O=C(CCSc1nnc2scc(-c3ccccc3)n12)Nc1nc(-c2ccccc2)ns1
4.0	.	O=c1oc2ccccc2n1S(=O)(=O)c1c(F)c(F)c(F)c(F)c1F
8.0	1.7	O=C(COC(=O)C12CC3CC(CC(Br)(C3)C1)C2)Nc1ccccc1
3.0	.	CC(C)C(=O)NC(C)C(c1cccs1)N1CCN(C)CC1 (configuration not stated)
-88.0	.	CCN1C(=O)/C(=C/c2c(N3CCCCC3)nc3ccccn3c2=O)SC1=S
-21.0	.	CCCN1CN(Cc2ccccc2)CC2=C1CC(C)(C)CC2=O
18.0	-2.5	CCOc1cc(CNc2ccc3c(c2)CCC3)ccc1O
-30.0	.	O=C(O)c1ccc(N=Nc2c(O)[nH]c(=O)[nH]c2=O)cc1
19.0	8.0	S=c1[nH]nc(CNc2cccc(Cl)c2)o1
17.0	1.8	CC(=O)n1c2ccc(C)cc2c2nc3ccccc3nc21
9.0	.	Cc1ccc(N2C(=O)CC(Sc3nnc(C)s3)C2=O)cc1 (configuration not stated)
2.0	.	CC(Sc1ccccc1)C(=O)N1CCN(c2ccccc2F)CC1 (configuration not stated)
1.0	3.6	CC(=O)NC1N=C(C)N(c2ccccc2)C1=O (configuration not stated)
7.0	5.9	COc1cccc(=O)c2c(C)n(CC(=O)c3ccccc3)c(C)c12
17.0	.	CC1CCCCN1C(=O)CCn1cnc2onc(-c3ccc(F)cc3)c2c1=O (configuration not stated)
9.0	.	Cc1ccc(-n2nc3c(c2NC(=O)COc2ccc(Cl)cc2Cl)CS(=O)C3)cc1 (configuration not stated)
1.0	1.8	CCOCCC(=O)N1CCCCC1CC (configuration not stated)
2.0	.	COc1ccc(-c2cc(=O)[nH][nH]2)cc1
10.0	16.8	CSc1ccc(C2OC(=O)C(=Cc3ccc(C)o3)C(=O)O2)cc1 (configuration not stated)
2.0	.	Cc1ccc(N2C(=O)c3ccccc3C2Nc2ccc(S(=O)(=O)N3CCCCCC3)cc2)nc1 (configuration not stated)
8.0	0.8	CC(=Nc1ccc(N(C)C)cc1)C1=C(O)c2ccccc2C1=O
4.0	5.0	CC1CCN(C(=O)CSc2nc3cc4c(cc3cc2C#N)OCO4)CC1
-4.0	-0.4	O=C(O)c1ccc(COc2ccc3c(c2)CCC3)o1
8.0	.	O=C(OCC(=O)N1CCC(Cc2ccccc2)CC1)c1ccc(O)cc1
13.0	.	CCN1C2=C(C#N)C(=O)CCCN2C(=O)c2ccccc21
15.0	-1.9	NC(=O)CSc1ccc2ccccc2c1
.	3.0	FC(F)(F)c1ccccc1NC(=S)N1CCCC1
.	-1.4	Fc1ccc(-c2csc(NCC3CCCO3)n2)cc1 (configuration not stated)
-15.0	.	Cc1onc(-c2c(F)cccc2Cl)c1-c1nc(-c2ccccc2)no1
4.0	-7.8	CCN1CCN(CCC(=O)Nc2ccc3c(c2)CCC3)CC1
5.0	.	CS(=O)(=O)c1ccc(/C=C/c2ccc(Cl)cc2)cc1
7.0	6.0	COc1cccc(/C=C/C(=O)C2C(=O)c3ccccc3C2=O)c1
3.0	-2.5	CC12CN3CC(C)(CN(C1)C3(C)CSc1c[nH]c3ccccc13)C2=O (configuration not stated)
-14.0	.	O=C(COc1ncnc2sccc12)NC(=O)NCc1ccco1
-49.0	.	N#Cc1c(Sc2ccccc2)ncc2cc3ccccc3nc12
14.0	2.3	CSc1ccc(-c2nc(CSCC(=O)N3CCCC3)c(C)o2)cc1
0.0	-1.2	COc1ccc(C(=O)Cn2c(C(F)(F)F)nc3ccccc32)cc1
9.0	1.2	CCOc1ccc2nc(NCCNC(=S)NC)c(C#N)cc2c1
15.0	-5.1	Cc1ccc(N2CC(C(=O)N3CCC(C(=O)Nc4cccnc4)CC3)CC2=O)cc1 (configuration not stated)
-26.0	.	COc1ccc(-c2noc(CSCC(=O)Nc3ccc(Br)cc3C)n2)cc1OC
-3.0	.	O=S(=O)(NNc1ncnc2sccc12)c1ccc(Cl)cc1
13.0	0.0	O=C(NCCc1ccccc1)c1cccc(Nc2nc3ccccc3n3nnnc23)c1
16.0	0.3	C=C(C)COc1ccc2c(CCCC)cc(=O)oc2c1
6.0	.	CCOC(=O)C1C(=O)CC(=O)C(C(=O)OCC)C1c1ccccc1 (configuration not stated)
-9.0	.	Cc1ccc(OCC(O)CN)c(C)c1 (configuration not stated)

# Whole records as entered above. Values in the order: S aureus helic	MgrA DNA FP
# Shown for COc1ccc(C(=O)Cn2c(C(F)(F)F)nc3ccccc32)cc1 → 0.0	-1.2
# Shown for CCN1C2=C(C#N)C(=O)CCCN2C(=O)c2ccccc21 → 13.0	.
# Shown for CC12CN3CC(C)(CN(C1)C3(C)CSc1c[nH]c3ccccc13)C2=O (configuration not stated) → 3.0	-2.5

# (more compounds)
S aureus helic	MgrA DNA FP	structure
7.0	4.1	O=C(O)Cn1ccccc1=O
14.0	.	Cc1nn(-c2ccccc2)c2nc(-c3cccnc3)cc(C(=O)NNC3=NCCC3)c12
-23.0	.	Cc1ccc2c(N)c(C(N)=O)sc2n1
0.0	-3.1	O=C1CCC(C(=O)NCc2ccccc2)N1 (configuration not stated)
.	-0.8	COc1ccc(Oc2ncccc2NC(=O)c2ccco2)cc1
15.0	-1.9	COc1ccc(S(=O)(=O)N2CCn3c2nc2ccccc23)cc1
3.0	.	CCOC(=O)Cc1csc(SCc2c(C(=O)OCC)oc3ccccc23)n1
-6.0	.	CCS(=O)(=O)c1ccc2c(c1)N=Cc1c(C)nn(Cc3ccc(Cl)cc3)c1O2
-2.0	-0.7	O=C(CSc1nnc2ccccn12)N1CCOCC1
-3.0	.	C#CCSc1nsc(SCC#C)c1C#N
.	-0.1	Cc1ccc(NC(=O)CC(CC(=O)O)c2ccccc2)cc1Cl (configuration not stated)
-21.0	.	O=S(=O)(c1ccc(Br)cc1)N1CCc2[nH]ncc2C1
29.0	.	O=C1c2ccccc2C(Nc2ccccc2)N1c1ccccn1 (configuration not stated)
.	-1.3	CC1(C)CCc2cc(/C=N/O)ccc2O1
10.0	-0.4	CCCNC(=O)N1CCC(c2ccc3c(c2)OCO3)CC1
19.0	.	CC(C)NC(=O)C12CC3CC(C1)CC(C(=O)NC(C)C)(C3)C2
1.0	.	CCCN(CC1CC1)C(=O)CSC1=N/C(=C\c2ccco2)C(=O)N1c1ccc(OC(F)F)cc1
-2.0	.	c1ccc(CCn2c(-c3cccs3)nc3ccccc32)cc1
.	1.7	COc1ccc(C2CC(C(F)(F)F)n3nc(C(=O)NCc4ccco4)c(Br)c3N2)cc1 (configuration not stated)
11.0	-2.0	Cc1nc2ccc(C(=O)OCC(=O)c3ccc(Cl)cc3)cc2nc1C
15.0	-7.0	Clc1cccc(CNCc2ccco2)c1
-17.0	.	CC1CCN(C(=O)COC(=O)CCc2nc3ccccc3s2)CC1
24.0	.	Nc1ncc(Cc2ccc(Cl)cc2Cl)s1
4.0	-1.6	CC(C)C1CC(c2csc(N)n2)CCO1 (configuration not stated)
7.0	.	Cc1ccc2c(CC(=O)OC(C)C#N)coc2c1 (configuration not stated)

# Some of these compounds in order of molar mass, descending:
S aureus helic	MgrA DNA FP	structure
.	1.7	COc1ccc(C2CC(C(F)(F)F)n3nc(C(=O)NCc4ccco4)c(Br)c3N2)cc1 (configuration not stated)
3.0	.	CCOC(=O)Cc1csc(SCc2c(C(=O)OCC)oc3ccccc23)n1
11.0	-2.0	Cc1nc2ccc(C(=O)OCC(=O)c3ccc(Cl)cc3)cc2nc1C

# Continuation.
S aureus helic	MgrA DNA FP	structure
14.0	.	Cc1sc(NC(=O)c2ccco2)c(C(c2ccccc2)N2CCCC2)c1C (configuration not stated)
.	3.6	CC(C)(C)c1ccc(NC(=S)NCc2cccnc2)cc1
4.0	.	N#Cc1c(N)n(CCNC(=O)c2ccc(Cl)cc2)c2nc3ccccc3nc12
4.0	0.8	Cc1nc2ccccc2c(=O)n1CC(=O)N(C1CCCCC1)C1CCCCC1
7.0	.	Nn1c(SCc2ccccc2)n[nH]c1=S
-11.0	-1.3	CN1CCN(NC(=O)COc2ccc(-c3ccccc3)cc2)CC1
-5.0	.	CCc1cc(C(=O)Cn2cnc3ccccc32)c(O)cc1O
5.0	1.7	Cc1ccccc1NC(=O)CSC1=C(C#N)C(c2ccccc2C)C2=C(CCCC2=O)N1 (configuration not stated)
-14.0	.	CCOc1ccc(S(N)(=O)=O)cc1
.	0.8	O=C(Sc1nccc(C(F)(F)F)n1)c1ccc(Cl)cc1
2.0	.	CCN(CC)c1nn2nnnc2c2ccccc12
-5.0	0.3	CN(C(=O)CN1CCC(NC(=O)c2ccccc2Br)CC1)C1CCCCC1
-3.0	.	Cn1c(=O)c2c(SCC(=O)Nc3nccs3)ccnc2n(C)c1=O
-10.0	-0.8	CCOc1cccc2cc(C(=O)Nc3nccs3)c(=Nc3cccc(C(F)(F)F)c3)oc12
9.0	3.4	Clc1ccccc1COc1cccc(CNCc2cccnc2)c1
7.0	1.4	Cc1c(C(=O)N2CCOCC2)sc(NC(=O)c2ccc3c(c2)OCO3)c1C#N
.	3.7	CN1CNc2c(c(=O)n(C)c(=O)n2C)C1
-19.0	.	COC(=O)c1sc(-c2ccccc2)cc1NC(=O)C1CC1
38.0	.	O=C1/C(=C/c2ccncc2)CCC/C1=C\c1ccncc1
17.0	0.5	c1ccc(SCc2nnc(-c3ccccc3)o2)cc1
-40.0	.	CCOC(=O)c1nn(-c2ccc(OC)cc2)c(C(=O)OCC)c1NC(=O)c1c(Br)cnn1C
-5.0	.	COc1cc(/C=C/C(=O)OCC(=O)NC2CCCCC2)ccc1O
0.0	0.2	CCC(SC1=Nc2ccccc2C2=NC(CC(C)C)C(=O)N12)C(=O)Nc1ccc2c(c1)OCO2 (configuration not stated)
7.0	-0.4	CCN(CCCn1c(=S)[nH]c2cc3c(cc2c1=O)OCO3)c1cccc(C)c1
-10.0	0.6	Fc1ccccc1C1Nc2ccc3ccccc3c2C2C=CCC21 (configuration not stated)
2.0	-0.5	Cc1cc(Cl)nc(-c2ccccc2)n1
-3.0	.	O=S(=O)(N=Nc1c(O)[nH]c2ccccc12)c1ccccc1
13.0	4.7	O=C(Nc1ccccc1C(=O)N1CCCCC1)C1CCCCC1
.	-0.6	Cn1nc(-c2ccccc2)c(/C=N/O)c1Cl
.	-0.1	NC(=NCc1ccccc1)c1ccc(Cl)cc1
.	4.5	C#CC1(O)CC[C@H]2[C@@H]3CCC4=CCCC[C@@H]4[C@H]3CC[C@@]21C (some centres not stated)
-1.0	-0.6	N#CCc1nc(-c2ccc(Br)cc2)cs1
.	-2.5	O=C1CS(=O)(=O)N(Cc2ccccc2)c2ccccc21
3.0	.	Cn1ccnc1SCC1CCCCO1 (configuration not stated)
16.0	.	CC(C)c1ccc(-n2ccnc2SCC(=O)NC2CCC(O)CC2)cc1 (configuration not stated)
9.0	2.7	CCCN(CCC)C(=O)CSc1ncccc1C(=O)Oc1ccccc1Cl
.	-0.9	CC(C)(C)c1ccc(OC(=O)NC(=O)c2ccc(-c3csnn3)cc2)cc1
-5.0	.	O=C(Nc1ccccn1)c1ccccc1Cl
7.0	.	O=C1c2ccccc2C(=O)N1CCN1CCOCC1
.	-3.1	Nc1cc(-c2ccc(F)cc2)nc(N)n1
3.0	-1.4	O=S(=O)(c1ccccc1)N1CCN(C2CCCCCCC2)CC1
-13.0	.	COC(=O)/C(C#N)=C(\NCc1ccc(Cl)cc1Cl)SC
-9.0	.	Cc1ccc(CNC(=O)C2c3ccccc3Oc3ccccc32)n1C
4.0	-0.3	O=C(c1ccco1)N1CCN(Cc2cccnc2)CC1
-14.0	.	OC(COc1ccc(C2CCCCC2)cc1)CN1CCCCC1 (configuration not stated)
3.0	.	CC(Nc1nc2ccccc2n1C)c1cc(Cl)ccc1O (configuration not stated)
14.0	-0.1	CC(C)C(c1nnnn1Cc1ccccc1)N1CCC(C(N)=O)CC1 (configuration not stated)
14.0	1.0	CCOc1ccc(OCC)c(CC(C#N)C(=O)OC)c1 (configuration not stated)
-8.0	.	CC(=O)NC(C)C1CC2CCC1C2 (configuration not stated)
-1.0	1.1	CCn1c(C)nc2cc(Cl)ccc21

# Going on with the list:
S aureus helic	MgrA DNA FP	structure
5.0	2.4	c1ccc(-n2c(SCCN3CCOCC3)nnc2-c2ccncc2)cc1
2.0	.	Cc1cc(NCc2ccco2)ncn1
-14.0&3.0	.	c1ccc2[nH]c(SCSc3nc4ccccc4[nH]3)nc2c1
-7.0	.	COc1cc(C(=O)Oc2ccc3c(c2)OCO3)ccc1OCc1c(C)noc1C
17.0	0.6	N#Cc1ccc(C=Nc2cccc(C#N)c2)cc1
-1.0	.	CCc1nc(-c2ccc(OC)c(OC)c2)cc2cc(OC)c(OC)cc12
.	1.7	Cn1c(=O)c2c(nc(NCCc3ccccc3)n2Cc2c(F)cccc2Cl)n(C)c1=O
.	-2.0	N#CCc1ccc(OC(=O)c2ccncc2)cc1
-4.0	.	CC(Sc1ncnc2sc3c(c12)CCC3)C(N)=O (configuration not stated)
-1.0	1.8	O=C(NC1CCCCC1)c1cc2c(=O)[nH]c3ccccc3c2s1
0.0	.	CCc1nc2cc(Cl)c(Cl)cc2nc1CC
.	3.2	CCCc1cc(OC(=O)c2cccnc2Oc2ccccc2)n(C)n1
4.0	0.0	CCn1nnnc1SCCSc1nnnn1CC
.	-0.1	Cn1c(Cc2ccsc2)nnc1Sc1nc2ccc(Cl)cc2s1
.	0.7	O=C1C2=C(NC(=S)NC2c2ccccc2)c2ccccc21 (configuration not stated)

# Arranged by value in MgrA DNA FP (low to high): some entries from above
canonical_smiles | S aureus helic | MgrA DNA FP
Cn1c(Cc2ccsc2)nnc1Sc1nc2ccc(Cl)cc2s1 | . | -0.1
N#Cc1ccc(C=Nc2cccc(C#N)c2)cc1 | 17.0 | 0.6
O=C(NC1CCCCC1)c1cc2c(=O)[nH]c3ccccc3c2s1 | -1.0 | 1.8

# An excerpt, so the mix of outcomes need not match the whole.
